Ran importin – inhibitors of Ran–importin-beta complex formation, primary screen, biochemical, CFP-Ran/YFP-importin-beta FRET, RCC1, cell-free (AID 434961); Regulator of chromosome condensation (Homo sapiens) + GTP-binding nuclear protein Ran …; CFP-Ran/YFP-importin-beta FRET, cell-free; stronger effect = higher value; inhibition, %; 0.2% of 7,700 active;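 active = more than half of the replicate wells above 15% inhibition; inconclusive = exactly half above it; inactive = fewer than half above it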;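 note: 0% = DMSO wells and 100% inhibition = RanGDP control wells on each plate; stock of unstated strength diluted about 400-fold; mean of two wells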
* = called active by the depositor; ? = inconclusive. Not all compounds are listed; count on the stated rates, not on these rows.

SMILES | Ran importin
CC(C)NC(=O)N(C)C[C@H]1OCCCC[C@@H](C)Oc2ccc(NC(=O)Nc3cccc4ccccc34)cc2C(=O)N([C@H](C)CO)C[C@@H]1C | 7.7
C[C@@H]1CN([C@@H](C)CO)C(=O)c2cc(NC(=O)CCCN(C)C)ccc2O[C@@H]1CN(C)C | -1.4
C[C@@H]1CN([C@@H](C)CO)C(=O)c2cc(NC(=O)NC3CCCCC3)ccc2O[C@@H]1CN(C)C(=O)Nc1ccccc1 | -1.7
C[C@H]1CN([C@@H](C)CO)C(=O)c2cc(NC(=O)Nc3ccc4c(c3)OCO4)ccc2O[C@H]1CN(C)C(=O)Nc1ccc2c(c1)OCO2 | -3.8
C[C@H]1CN([C@@H](C)CO)C(=O)Cc2cc(NC(=O)Nc3ccccc3)ccc2O[C@H]1CN(C)C(=O)Nc1ccc(F)cc1 | 4.4
Cc1noc(C)c1NC(=O)N(C)C[C@@H]1Oc2ccc(NC(=O)Cc3ccccc3)cc2C(=O)N([C@H](C)CO)C[C@@H]1C | -3.5
Cc1cc(C(=O)Nc2cccc3c2O[C@H](CN(C)CC2CC2)[C@H](C)CN([C@H](C)CO)C3=O)n(C)n1 | 3.6
C[C@H]1CN([C@@H](C)CO)C(=O)Cc2cc(NC(=O)CCN3CCOCC3)ccc2O[C@@H]1CN(C)S(=O)(=O)c1cccs1 | 3.5
Cc1noc(C)c1S(=O)(=O)N(C)C[C@H]1Oc2ccc(NC(=O)CCCN(C)C)cc2C(=O)N([C@H](C)CO)C[C@H]1C | -2.3
C[C@@H]1CN([C@H](C)CO)C(=O)c2cccc(NC(=O)C3CCOCC3)c2O[C@H]1CN(C)CC1CC1 | 5.3
CNC[C@H]1OCCCC[C@@H](C)Oc2ccc(N)cc2C(=O)N([C@@H](C)CO)C[C@@H]1C | -1.3
C[C@H]1CN([C@@H](C)CO)C(=O)c2cccc(NC(=O)Nc3ccc(F)cc3)c2O[C@@H]1CN(C)C(=O)NC1CCCCC1 | -2.2
COc1ccc(S(=O)(=O)Nc2ccc3c(c2)C(=O)N([C@@H](C)CO)C[C@H](C)[C@@H](CN(C)CC2CC2)O3)cc1 | -1.6
C[C@@H]1CCCCO[C@@H](CN(C)C)[C@H](C)CN([C@H](C)CO)C(=O)c2cc(NC(=O)Nc3ccc(C(F)(F)F)cc3)ccc2O1 | 3.0
C[C@@H]1CN([C@H](C)CO)C(=O)Cc2cc(NC(=O)NC3CCCCC3)ccc2O[C@@H]1CN(C)S(=O)(=O)c1ccc(Cl)cc1 | 1.9
C[C@@H]1CCCCO[C@@H](CN(C)C(=O)Cc2ccccc2)[C@H](C)CN([C@@H](C)CO)C(=O)c2cc(NS(C)(=O)=O)ccc2O1 | -0.3
C[C@H]1CN([C@@H](C)CO)C(=O)c2cccc(NS(=O)(=O)c3cn(C)cn3)c2O[C@@H]1CN(C)Cc1ccc(C(F)(F)F)cc1 | -1.4
C[C@@H]1CCCCO[C@H](CN(C)S(=O)(=O)c2cn(C)cn2)[C@H](C)CN([C@H](C)CO)C(=O)c2cc(NS(C)(=O)=O)ccc2O1 | 0.4
C[C@@H]1CN([C@H](C)CO)C(=O)c2cc(NC(=O)C3CC3)ccc2O[C@@H]1CN(C)C | ?
C[C@H](CO)N1C[C@H](C)[C@H](CN(C)C(=O)Nc2cccc3ccccc23)Oc2ncc(-c3ccc(F)cc3)cc2C1=O | -0.3
COc1ccc(NC(=O)Nc2ccc3c(c2)CC(=O)N([C@@H](C)CO)C[C@H](C)[C@H](CN(C)S(=O)(=O)c2ccc(C)cc2)O3)cc1 | -0.9
Cc1noc(C)c1NC(=O)N(C)C[C@@H]1OCCCC[C@H](C)Oc2ccc(NC(=O)CCC(F)(F)F)cc2C(=O)N([C@@H](C)CO)C[C@@H]1C | 1.6
C[C@@H]1CN([C@@H](C)CO)C(=O)Cc2cc(NC(=O)NC3CCCCC3)ccc2O[C@H]1CN(C)C(=O)NC1CCCCC1 | 2.7
C[C@@H]1CN([C@H](C)CO)C(=O)c2cc(NC(=O)C3CCCCC3)ccc2O[C@@H](C)CCCCO[C@H]1CN(C)C(=O)Nc1ccccc1 | 0.9

Ordered by value in Ran importin (largest number first): 7 of the compounds above
SMILES | Ran importin
C[C@@H]1CCCCO[C@@H](CN(C)C)[C@H](C)CN([C@H](C)CO)C(=O)c2cc(NC(=O)Nc3ccc(C(F)(F)F)cc3)ccc2O1 | 3.0
C[C@@H]1CN([C@@H](C)CO)C(=O)Cc2cc(NC(=O)NC3CCCCC3)ccc2O[C@H]1CN(C)C(=O)NC1CCCCC1 | 2.7
Cc1noc(C)c1NC(=O)N(C)C[C@@H]1OCCCC[C@H](C)Oc2ccc(NC(=O)CCC(F)(F)F)cc2C(=O)N([C@@H](C)CO)C[C@@H]1C | 1.6
C[C@@H]1CN([C@H](C)CO)C(=O)c2cc(NC(=O)C3CCCCC3)ccc2O[C@@H](C)CCCCO[C@H]1CN(C)C(=O)Nc1ccccc1 | 0.9
C[C@H](CO)N1C[C@H](C)[C@H](CN(C)C(=O)Nc2cccc3ccccc23)Oc2ncc(-c3ccc(F)cc3)cc2C1=O | -0.3
COc1ccc(NC(=O)Nc2ccc3c(c2)CC(=O)N([C@@H](C)CO)C[C@H](C)[C@H](CN(C)S(=O)(=O)c2ccc(C)cc2)O3)cc1 | -0.9
C[C@H]1CN([C@@H](C)CO)C(=O)c2cccc(NS(=O)(=O)c3cn(C)cn3)c2O[C@@H]1CN(C)Cc1ccc(C(F)(F)F)cc1 | -1.4

Further results follow.
SMILES | Ran importin
C[C@@H]1CN([C@H](C)CO)C(=O)c2cccc(NC(=O)c3ccncc3)c2O[C@@H]1CN(C)S(=O)(=O)c1ccc(F)cc1 | -0.4
CC(C)NC(=O)Nc1ccc2c(c1)C(=O)N([C@H](C)CO)C[C@H](C)[C@@H](CN(C)Cc1ccc(C(=O)O)cc1)OCCCC[C@H](C)O2 | ?
C[C@@H]1CN([C@@H](C)CO)C(=O)c2cc(NC(=O)c3ccccc3)ccc2O[C@@H](C)CCCCO[C@@H]1CN(C)S(=O)(=O)c1cn(C)cn1 | -4.7
C[C@H](CO)N1C[C@H](C)[C@H](CN(C)CC2CC2)Oc2c(NS(=O)(=O)c3cn(C)cn3)cccc2C1=O | 1.5
CNC[C@@H]1Oc2ccc(NC(=O)c3ccncc3)cc2C(=O)N([C@@H](C)CO)C[C@H]1C | 7.4
COc1ccc(S(=O)(=O)Nc2cccc3c2O[C@H](CN(C)Cc2ccc(C(F)(F)F)cc2)[C@H](C)CN([C@@H](C)CO)C3=O)cc1 | -0.2
CNC[C@@H]1Oc2ccc(NC(=O)Cn3cnnn3)cc2CC(=O)N([C@H](C)CO)C[C@@H]1C | -16.1
C[C@@H]1CN([C@H](C)CO)C(=O)c2cc(NS(=O)(=O)c3cn(C)cn3)ccc2O[C@@H](C)CCCCO[C@@H]1CN(C)S(=O)(=O)c1cn(C)cn1 | 2.2
C[C@H](CO)N1C[C@H](C)[C@@H](CN(C)S(=O)(=O)c2ccccc2)OCCCC[C@H](C)Oc2ccc(NC(=O)CCCN(C)C)cc2C1=O | -0.1
COc1ccc(S(=O)(=O)Nc2cccc3c2O[C@H](CN(C)S(=O)(=O)c2ccc(F)cc2)[C@H](C)CN([C@@H](C)CO)C3=O)cc1 | 3.2
COc1ccc(S(=O)(=O)Nc2cccc3c2O[C@@H](CN(C)S(=O)(=O)c2cccs2)[C@@H](C)CN([C@@H](C)CO)C3=O)cc1 | -1.5
C[C@@H]1CN([C@H](C)CO)C(=O)CCCn2cc(nn2)CO[C@@H]1CN(C)C(=O)Nc1ccnc(N2CCOCC2)c1 | 3.1
Cc1noc(C)c1NC(=O)N(C)C[C@H]1Oc2c(NC(=O)Nc3ccc(C(F)(F)F)cc3)cccc2C(=O)N([C@@H](C)CO)C[C@@H]1C | -3.9
C[C@@H]1CN([C@H](C)CO)C(=O)c2cccc(NS(=O)(=O)c3cn(C)cn3)c2O[C@H]1CN(C)S(=O)(=O)c1cn(C)cn1 | 3.0
C[C@@H]1CN([C@H](C)CO)C(=O)Cc2cc(NC(=O)c3ccncc3)ccc2O[C@H]1CN(C)C(=O)NC1CCCCC1 | 0.4
C[C@H]1CN([C@@H](C)CO)C(=O)CCCn2cc(nn2)CO[C@@H]1CN(C)S(=O)(=O)c1ccc(Cl)cc1 | -3.9
Cc1noc(C)c1NC(=O)N(C)C[C@@H]1Oc2c(NS(C)(=O)=O)cccc2C(=O)N([C@H](C)CO)C[C@H]1C | -0.1
C[C@@H]1CN([C@H](C)CO)C(=O)Cc2cc(NC(=O)Cc3ccccc3)ccc2O[C@@H]1CN(C)C(=O)NC1CCCCC1 | 3.1
C[C@@H]1CCCCO[C@@H](CN(C)C(=O)Cc2ccccc2)[C@@H](C)CN([C@H](C)CO)C(=O)c2cc(NC(=O)c3ccncc3)ccc2O1 | 2.0
C[C@@H]1CN([C@@H](C)CO)C(=O)c2cccc(NC(=O)Nc3ccc(F)cc3)c2O[C@H]1CN(C)S(=O)(=O)c1ccc(Cl)cc1 | 3.7
COc1ccc(NC(=O)N(C)C[C@@H]2Oc3c(NS(=O)(=O)c4cccs4)cccc3C(=O)N([C@@H](C)CO)C[C@H]2C)cc1 | 1.3
C[C@H](CO)N1C[C@H](C)[C@@H](CN(C)Cc2ccccc2)Oc2c(NS(=O)(=O)c3cn(C)cn3)cccc2C1=O | 7.8
COc1ccc(NC(=O)Nc2ccc3c(c2)CC(=O)N([C@H](C)CO)C[C@H](C)[C@H](CN(C)C)O3)cc1 | -3.3
CNC[C@H]1Oc2ccc(NC(=O)CCN3CCOCC3)cc2CC(=O)N([C@@H](C)CO)C[C@H]1C | -4.3
C[C@H]1CCCCO[C@H](CN(C)C)[C@@H](C)CN([C@@H](C)CO)C(=O)c2cc(NC(=O)Nc3ccc4c(c3)OCO4)ccc2O1 | -4.7
C[C@@H]1CN([C@H](C)CO)C(=O)c2cc(NC(=O)c3ccncc3)ccc2O[C@@H](C)CCCCO[C@H]1CN(C)Cc1ccncc1 | 7.9
C[C@@H]1CN([C@H](C)CO)C(=O)c2cccc(NS(=O)(=O)c3ccccc3)c2O[C@@H]1CN(C)C | ?
Cc1noc(C)c1S(=O)(=O)Nc1ccc2c(c1)C(=O)N([C@@H](C)CO)C[C@@H](C)[C@@H](CN(C)C(=O)Nc1ccc(F)cc1)O2 | 0.0
Cc1ccc(S(=O)(=O)Nc2ccc3c(c2)CC(=O)N([C@H](C)CO)C[C@H](C)[C@@H](CN(C)Cc2ccncc2)O3)cc1 | 0.1
COc1ccccc1S(=O)(=O)N(C)C[C@@H]1OCc2cnnn2CCCC(=O)N([C@@H](C)CO)C[C@@H]1C | 7.2
C[C@H](CO)N1C[C@H](C)[C@H](CN(C)S(=O)(=O)c2ccc(Cl)cc2)Oc2ccc(NS(=O)(=O)c3cn(C)cn3)cc2CC1=O | 6.4
C[C@H]1CN([C@@H](C)CO)C(=O)Cc2cc(NC(=O)Cc3cn(C)c4ccccc34)ccc2O[C@H]1CN(C)S(=O)(=O)c1cccs1 | 0.2
CC(C)NC(=O)N(C)C[C@H]1Oc2ccc(N(C)C)cc2CC(=O)N([C@H](C)CO)C[C@H]1C | -10.1
COc1ccc(S(=O)(=O)N(C)C[C@@H]2Oc3ccc(NC(=O)c4ccncc4)cc3C(=O)N([C@H](C)CO)C[C@H]2C)cc1 | ?
C[C@H](CO)N1C[C@H](C)[C@@H](CN(C)S(=O)(=O)c2cccs2)Oc2ccc(NS(=O)(=O)c3ccccc3)cc2CC1=O | 0.7
C[C@H]1CN([C@@H](C)CO)C(=O)Cc2cc(NS(=O)(=O)c3cn(C)cn3)ccc2O[C@@H]1CN(C)Cc1ccccc1 | 2.2
Cc1noc(C)c1S(=O)(=O)N(C)C[C@H]1Oc2ccc(NC(=O)Nc3ccc(F)cc3)cc2CC(=O)N([C@H](C)CO)C[C@@H]1C | 5.2
Cc1noc(C)c1S(=O)(=O)N(C)C[C@@H]1Oc2ccc(NC(=O)Cc3cn(C)c4ccccc34)cc2CC(=O)N([C@H](C)CO)C[C@H]1C | ?
COc1ccc(CN(C)C[C@H]2Oc3ccc(NC(=O)Nc4ccc(C(F)(F)F)cc4)cc3CC(=O)N([C@@H](C)CO)C[C@H]2C)cc1 | -1.6
CNC[C@@H]1OCc2cn(nn2)CCCC(=O)N([C@@H](C)CO)C[C@H]1C | -2.2
CC(C)NC(=O)N(C)C[C@H]1OCCCC[C@H](C)Oc2ccc(NC(=O)c3ccncc3)cc2C(=O)N([C@H](C)CO)C[C@@H]1C | -1.3
Cc1noc(C)c1NC(=O)N(C)C[C@@H]1Oc2ccc(NC(=O)NC(C)C)cc2CC(=O)N([C@@H](C)CO)C[C@@H]1C | -2.1
C[C@H]1CN([C@@H](C)CO)C(=O)c2cc(NC(=O)Nc3ccc4c(c3)OCO4)ccc2O[C@@H]1CN(C)CC1CCCCC1 | -3.7
C[C@@H]1CN([C@H](C)CO)C(=O)Cc2cc(NC(=O)Cc3ccccc3)ccc2O[C@H]1CN(C)Cc1ccc(C(F)(F)F)cc1 | -0.1
C[C@H](CO)N1C[C@H](C)[C@@H](CN(C)Cc2ccc3c(c2)OCO3)Oc2ccc(NC(=O)C3CC3)cc2C1=O | 1.1
C[C@H]1CN([C@@H](C)CO)C(=O)c2cccc(NC(=O)C3CCOCC3)c2O[C@@H]1CN(C)Cc1ccncc1 | -6.0
C[C@H](CO)N1C[C@H](C)[C@H](CN(C)S(=O)(=O)c2ccccc2)Oc2ncc(-c3cccc(C(F)(F)F)c3)cc2C1=O | 6.7
Cc1noc(C)c1S(=O)(=O)N(C)C[C@@H]1Oc2c(NC(=O)c3ccc(-c4nccs4)cc3)cccc2C(=O)N([C@H](C)CO)C[C@@H]1C | 0.3
Cc1noc(C)c1S(=O)(=O)N(C)C[C@@H]1Oc2ccc(NC(=O)NC(C)C)cc2CC(=O)N([C@@H](C)CO)C[C@@H]1C | 0.2
C[C@H]1CN([C@@H](C)CO)C(=O)c2cccc(NC(=O)NC3CCCCC3)c2O[C@H]1CN(C)Cc1ccncc1 | -1.8
